# Screens from PubChem BioAssay.
# MgrA-DNA mod = S. aureus MgrA-DNA binding modulation; inhibition, %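 (about 10 µg/mL by stock and volumes)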; AID 602314; hit rate 0.13% among 84,000; fluorescence polarization;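 active means above 50% in either of two replicates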;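 further: 0% = protein plus DNA without compound and 100% = DNA alone without protein; higher means less MgrA bound to DNA so lower polarization; one replicate is shown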
# S aureus helic = blocks Staphylococcus aureus DNA helicase | purified S. aureus helicase, fluorescence unwinding assay; about half of the hits fall short of the stated cut | inhibition, %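 (tested at about 80 µM)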 | hit rate 0.05% among 120,000 | AID 485395;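 active means both duplicates at 50% or more, or one of them with a favoured structure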;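 further: 0% = mean of negative control wells and 100% = mean of positive control wells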
# The depositor's hits bear a star; · = no result given. Not all compounds are listed. The share of hits here may be higher or lower than overall.
# Each structure is followed by: S aureus helic	MgrA-DNA mod
COc1ccc(CNC(=O)c2cc3c(s2)CN(Cc2ccccc2)C3)cc1
    7.0	-1.2
CC1(C)Cc2cccc(C(=O)NCc3cccs3)c2O1
    ·	0.8
O=C1c2ccccc2C(=O)N1N1C(=O)C2C3C=CC(C3)C2C1=O (stereo not given)
    24.0	·
CC(=O)Nc1cccc(-c2nc3cc(C)ccc3o2)c1C
    -4.0	·
COc1ccc(S(=O)(=O)n2c(=O)cnc3ccccc32)cc1
    18.0	·
Cc1cc2c(=O)oc(-c3cccc4ccccc34)nc2s1
    3.0	1.4
O=C(Nc1nc(-c2cc3ccccc3oc2=O)cs1)c1c(F)cccc1F
    -25.0	·
CC(C)c1ccc(-c2noc(C3CCCN(S(C)(=O)=O)C3)n2)cc1 (stereo not given)
    -16.0	0.8
O=S(=O)(c1ccccc1)c1ccc(S(=O)(=O)N2CCCC2)s1
    ·	-1.0
CC(c1ccccc1)N1C(=O)CSC1=S (stereo not given)
    ·	4.2
O=C1Cn2c(nc3ccccc3c2=O)CN1Cc1ccc2c(c1)OCO2
    -17.0	·
Cc1cc(C)c(NC(=O)CCn2nnc3ccccc32)c(C)c1
    6.0	3.0
COc1cccc(C=NCCCC2C=NNC2=O)c1O (stereo not given)
    ·	-1.7
COC(=O)CSC(C)c1nc2ccccc2c(=O)[nH]1 (stereo not given)
    13.0	·
CN(C)S(=O)(=O)c1ccc(C(=O)Nc2c(C(=O)Nc3ccccc3F)oc3ccccc23)cc1
    -18.0	·
CC1CC(=O)N(CC(=O)NCc2ccc(F)cc2)c2ccccc2S1(=O)=O (stereo not given)
    10.0	·
NNC(=O)CCc1cccc(S(=O)(=O)N2CCOCC2)c1
    -13.0	·
CCc1c(C)c2c(C)nn(-c3ccccc3)c2[nH]c1=O
    14.0	·
COc1ccc(C)cc1NC(C)C(=O)NC(=O)NC1CCCCC1 (stereo not given)
    15.0	·
CC1Cc2ccccc2N1C(=O)COc1ncnc2c1cnn2-c1ccccc1 (stereo not given)
    -8.0	·

# 3 compounds out of the list above, sorted by the value under S aureus helic, descending:
Compound	S aureus helic	MgrA-DNA mod
Cc1cc(C)c(NC(=O)CCn2nnc3ccccc32)c(C)c1	6.0	3.0
CC(C)c1ccc(-c2noc(C3CCCN(S(C)(=O)=O)C3)n2)cc1 (stereo not given)	-16.0	0.8
CN(C)S(=O)(=O)c1ccc(C(=O)Nc2c(C(=O)Nc3ccccc3F)oc3ccccc23)cc1	-18.0	·

# Going on with the list.
# Each structure is followed by: S aureus helic	MgrA-DNA mod
CC(C)(C)C(=O)Nc1nc(-c2ccc(Cl)s2)cs1
    -23.0	1.9
CCOC(=O)N1CCN(CN2C(=O)NC(c3ccccc3)(c3ccccc3)C2=O)CC1
    9.0	·
Clc1ccc(C2Nc3ccccc3-n3cccc32)cc1 (stereo not given)
    ·	5.8
COc1cc2c(cc1OC)C(C)N(CCC(N)=O)CC2 (stereo not given)
    13.0	0.3
CC1CCN(S(=O)(=O)c2ccc(C(=O)Nc3c(C(N)=O)oc4ccccc34)cc2)CC1
    9.0	·
COCCn1c(SCC(=O)N2CCNC2=O)nc2ccccc21
    13.0	·
CC1Cc2cc(/C=C3\N=C(c4ccccc4F)OC3=O)ccc2O1 (stereo not given)
    11.0	2.2
CCc1cc2c(=O)c(-c3nc4ccccc4s3)coc2c(CN(CC)CC)c1O
    0.0	·
CSc1nc(-c2ccccc2)nc2c1Cc1c(CO)cnc(C)c1O2
    4.0	-2.5
CC(C)c1ccc(NC(=O)CSC(=O)c2ccccc2)cc1
    9.0	3.1
O=C(CCn1c(=O)c2cccn2c2cccnc21)NCCCc1ccccc1
    -2.0	·
C=C1C(C(=O)Nc2ccc(N(C)C)cc2)C1C(=O)Nc1ccc(N(C)C)cc1 (stereo not given)
    18.0	·
O=C1NC(=S)NC(=O)C1=Cc1ccccc1OCCOc1ccc([N+](=O)[O-])cc1
    ·	22.7
CC(SC1=NCCN1S(C)(=O)=O)c1ccccc1 (stereo not given)
    11.0	·
Cc1oc2c(F)c(F)c(F)c(F)c2c1-c1noc(C(C)(C)C)n1
    ·	0.0
CC1=C(C(=O)OC2CCCCCCC2)C(c2ccc(Cl)c(Cl)c2)NC(=O)N1 (stereo not given)
    6.0	-2.9
O=C(NC1CCS(=O)(=O)C1)c1cc(-c2ccccc2)nc2ccccc12 (stereo not given)
    -10.0	-2.2
O=C(O)c1ccc(NS(=O)(=O)c2cccc3cccnc23)cc1
    8.0	·
CNC(=O)/C(C#N)=C\c1ccc(Sc2ccccc2)o1
    10.0	2.3
CC1=C(C(=O)OC2CCCCCCC2)C(c2ccccc2C(F)(F)F)CC(=O)N1 (stereo not given)
    5.0	0.2
COc1c(CC(NC(C)=O)C(=O)O)cccc1OCC1CCCC1 (stereo not given)
    ·	-3.3
CCOc1ccc(/C=C/C(=O)CCC(=O)O)cc1
    ·	-1.9
Cc1ccc(S(=O)(=O)NC(C(=O)O)C(C)C)cc1C (stereo not given)
    -13.0	·
COc1ccc(CCNC(=O)C2CCN(S(=O)(=O)N3CCCCC3)CC2)cc1OC
    18.0	·
CN1C(=O)C(O)(c2nnc(-c3ccccc3)o2)c2ccccc21 (stereo not given)
    -5.0	·
CN1C(=O)N(C)C2NC(SCC(=O)O)=NC21 (stereo not given)
    18.0	·
CC(C)CC(NC(=O)c1ccco1)C(=O)Nc1ccc2c(c1)OCCO2 (stereo not given)
    10.0	·
O=C(Nc1ccc(OCc2ccccc2)cc1)OCC1CN(Cc2ccccc2)CCO1 (stereo not given)
    ·	-0.5
Clc1ccc2nc(-c3cccs3)cn2c1
    ·	-2.2
CSc1nc2ccc(NC(=O)CN3C(=O)c4ccccc4C3=O)cc2s1
    ·	-0.4
CCN1CCN(C(=O)c2ccccc2C(=O)Nc2ccc(S(=O)(=O)N3C(C)CCCC3C)cc2)CC1 (stereo not given)
    23.0	1.2
CN1C(=O)C[C@@H](C(=O)O)[C@@H]1c1ccccc1Cl
    2.0	-1.3
Cc1c(C)c(C)c(C(=O)/C=N/N)c(C)c1C
    ·	0.7
COC(=O)c1sc2nc3n(c(=O)c2c1C)N=C(c1cccc(OC)c1)CS3
    -2.0	·
Nc1ncc(Br)cc1S(=O)(=O)NCCC(=O)Nc1ccc(Cl)cc1
    0.0	-0.6
CN(Cc1ccccc1)C(=O)CN1C(=O)c2ccccc2C1=O
    12.0	·
CCn1nnc2c(NCCc3ccc(S(N)(=O)=O)cc3)ncnc21
    7.0	·
COc1ccc(NC(=O)N2CCC(n3cnc4ccccc43)CC2)cc1
    5.0	-0.1
Cc1ccc(-c2ccc(=O)n(CCC(=O)NCCN3CCN(c4cccc(Cl)c4)CC3)n2)cc1
    6.0	-0.9
CCOC(=O)Cn1c2c(c(=N)c3c1CCC3)CCC2
    -28.0	·
OCCCN1CNC(=S)NC1
    ·	-3.4
COc1ccc(-c2nsc3c(N4CCN(S(=O)(=O)c5cccc(F)c5)CC4)ncnc23)cc1
    10.0	5.0
Cn1c(SCCS(=O)(=O)c2ccc(F)cc2)nnc1C(F)(F)F
    ·	-0.7
CCS(=O)(=O)c1nc2ccccc2n1Cc1ccccc1Cl
    5.0	·
CCC1CCC(N2CCN(c3ccccc3F)CC2)CC1 (stereo not given)
    7.0	-3.0
N=C1S/C(=C\c2ccccc2)C(=O)N1c1ccc(F)cc1
    9.0	2.7
CC(=O)N[C@H]1[C@H](Oc2ccc(Cl)cc2Cl)O[C@H](CO)[C@@H](O)[C@@H]1O
    16.0	-0.8
CC(C)CNCC(=O)Nc1cc(C(F)(F)F)cc(C(F)(F)F)c1
    19.0	·
NC(=O)C1CCN(C(=O)CCCn2c(=S)[nH]c3ccccc3c2=O)CC1
    15.0	·
N#CCC(=O)N1N=CCC1(O)C(F)(F)F (stereo not given)
    -6.0	·
CCn1nnnc1NCc1cccc(Cl)c1
    0.0	0.4
COc1ccc2cc(S(=O)(=O)N3CCN(C)CC3)ccc2c1
    -2.0	·
Cn1cnnc1SCc1nc2ccccc2[nH]1
    11.0	2.5
CCCCSc1nnc2c(n1)OC(c1cc3c(cc1[N+](=O)[O-])OCO3)Nc1ccccc1-2 (stereo not given)
    ·	32.0
Cc1cccc(N2C(=O)c3ccc(Oc4ccc5c(c4)C(=O)N(c4cccc(C)n4)C5=O)cc3C2=O)n1
    2.0	1.4
Cc1c(NC(=O)C(Cc2ccccc2)N2C(=O)C3C4C=CC(C4)C3C2=O)c(=O)n(-c2ccccc2)n1C (stereo not given)
    17.0	·
Cc1ccccc1NC(=O)Nc1ccccc1N1CCCCC1
    ·	1.2
CS(=O)(=NC(=O)Nc1ccccc1)c1ccsc1 (stereo not given)
    13.0	·
CC1=NN(C(=O)c2ccccc2)C(O)(C(F)(F)OC(F)(F)F)C1 (stereo not given)
    16.0	·
CCC(C)NC(=O)Cc1n[nH]c(=O)c2ccccc12 (stereo not given)
    -1.0	·

# Continued.
# Each structure is followed by: S aureus helic	MgrA-DNA mod
COc1cccc(C(=O)Nc2ccc(-n3nncc3C(C)(C)C)cc2)c1
    4.0	0.8
CC1(C)N=C(c2ccccc2)C(=S)N1
    5.0	-2.1
O=C1CCC(=O)N1c1ccc(OC(F)(F)F)cc1
    ·	2.6
COc1ccc(-n2c(C)nc(=O)c(-c3ccccc3)c2C)cc1
    4.0	-0.7
CCOC(=O)c1c(O)c(O)c(C(=O)OCC)n1-c1ccccc1
    ·	5.9
Cc1ccc2nc3n(c(=O)c2c1)CC(O)=C3C#N
    6.0	·
O=C(COC(=O)C1CCN(S(=O)(=O)c2cccs2)CC1)c1ccccc1
    2.0	·
N#Cc1c(NC(=O)CC(c2ccccc2)c2ccccc2)oc(-c2ccco2)c1-c1ccco1
    -31.0	·
Cc1cc(C)c(/C=C2\SC(=S)N(CC(=O)O)C2=O)c(C)c1
    ·	4.0
COc1cc2c(C#N)c(N3CCN(S(=O)(=O)c4ccccc4C(F)(F)F)CC3)nc(N)c2c(N)n1
    -39.0	·
OC(COc1ccc(Cl)cc1)CN1CCN(c2ccccc2)CC1 (stereo not given)
    -9.0	·
COc1cc2c(cc1OC)C1=C(C#N)CN(CC(=O)O)CN1CC2
    11.0	0.5
CCOC(=O)CSc1nc(-c2ccccc2)ns1
    -2.0	·
CC(C)CN(CC(C)C)c1nnc(NC(=O)c2cc(-c3ccc(Br)cc3)on2)s1
    -3.0	·
c1ccc(-c2cccc(-c3ccccc3)n2)cc1
    ·	1.3
COc1cccc(C(=O)NC(C)C2CC3CCC2C3)c1OC (stereo not given)
    5.0	2.1
O=C(Cc1noc2ccccc12)Nc1ccc(Cl)cc1
    -8.0	·
O=C(CC1NC(=O)NC1=O)Nc1ccccc1 (stereo not given)
    13.0	·
O=C1CN(C(=O)CCN2CCOCC2)C(c2ccccc2)c2cc(Br)ccc2N1 (stereo not given)
    5.0	·
O=C(O)CCCC(=O)n1cnc2ccccc21
    -2.0	0.4
Cc1ccc(OCC(O)CNC2Cc3ccccc3C2)cc1C (stereo not given)
    ·	-3.2
O=C(c1ccc(Cl)cc1)N1CCC(c2nc(-c3ccc(Cl)cc3)no2)CC1
    ·	-2.5
CNc1ccc(Br)cc1-c1n[nH]c(=S)[nH]c1=O
    0.0	1.2
Cc1ccc(O)c(-c2cc(-c3ncc(Cl)n3C)[nH]n2)c1
    -18.0	·
O=C1NN(c2ccccc2)C(=O)C2C3C=CC(C4CC34)C12 (stereo not given)
    8.0	-1.4
COc1ccccc1NC(=O)c1cccc(S(=O)(=O)N2CCCC2)c1
    -9.0	2.5
CN1CCN(NC(=O)COc2ccc3c(c2)CCC3)CC1
    5.0	2.5
Nc1c(-c2ccc(Cl)cc2)cnn1-c1ncc(C(F)(F)F)cc1Cl
    ·	-1.1
CCN(CC)c1ccc(C2N(C(=O)N3CCOCC3)CCN2S(=O)(=O)c2ccc(C)cc2)cc1 (stereo not given)
    -23.0	·
CCCCNc1nc(-c2cccc(OC)c2)no1
    3.0	·
Cc1csc2nc(CN3CCCC3c3cccs3)cc(=O)n12 (stereo not given)
    11.0	·
CC1(C)CC(=O)C2=C(C1)NC1=C(C(=O)CC(C)(C)C1)C2c1ccc2c(c1)OCO2
    1.0	0.9
CC(=O)Nc1ccc(O)c(-c2nc3ccccc3s2)c1
    -19.0	·
COc1ccc(OC/C(N)=N/OC(=O)c2cc(C)on2)cc1
    -7.0	·
Cc1ccc(C(=O)CC(C(=O)c2ccc(C(F)(F)F)cc2)c2cccs2)cc1 (stereo not given)
    ·	-0.6
CCC(C)(C)NCC(=O)Nc1ccc(OC(F)(F)F)cc1
    7.0	·
Cc1cc(S(=O)(=O)N2CCCCC2)c(C)c(C)c1C
    7.0	1.7
COc1ccc(NC(=O)COC(=O)Cn2cnc3ccccc3c2=O)c(OC)c1
    30.0	·
O=C(NN1C(=O)C2C3C=CC(C3)C2C1=O)c1ccncc1 (stereo not given)
    16.0	2.0
CN(Cc1nc(-c2ccccc2)no1)C(=O)N1CCOCC1
    -4.0	-0.2
O=c1c(C2NCCC3(O)CCCCC23)coc2ccc(Cl)cc12 (stereo not given)
    17.0	·
CCOc1ccc(/C=c2/sc3nnc(-c4ccccc4C)n3c2=O)cc1
    9.0	1.7
S=C(NCc1ccco1)Nc1ccccc1
    -8.0	1.5
COc1cccc(N2C(=O)C=CC2=O)c1
    21.0	·
CCOC(=O)C1=C(C)N=c2s/c(=C\c3ccc(OC)c(Br)c3)c(=O)n2C1c1ccc2c(c1)OCO2 (stereo not given)
    ·	-0.2
COc1ccc2[nH]c(C(=O)Nc3ccc(F)cc3Br)cc2c1
    ·	-1.6
COC(=O)Nc1cccc(NC(=O)OC)c1F
    15.0	·
O=C(/C=C/c1ccccc1)Nc1ccc(C(=O)O)cc1
    -13.0	-0.9
COCCn1c(-c2cccc(C)c2)nn(CN2CCCC(C(N)=O)C2)c1=S (stereo not given)
    -8.0	·
O=C(CN1CCCCC1)N/N=C/c1ccc(/C=N/NC(=O)CN2CCCCC2)cc1
    -1.0	3.8
